hNpr1 antagonist – Natriuretic polypeptide receptor (hNpr1) antagonism - Primary qHTS; HEK293 hNpr1 GloSensor cGMP, ANP-stimulated luminescence; Atrial natriuretic peptide receptor 1 (Homo sapiens), P16066; Potency, µM (highest dose often 46.3 µM), without a hit: top-dose activity change, negative = inhibition, hits mostly inhibitors; hit rate 1.6% among 76,000; active = well fitted inhibition curve with a large enough effect; inconclusive = small, poorly fitted or top-dose-only effect; inactive = no such curve, though single readings can be large or run the other way;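 note: nearly all actives have a fitted effect of over 60% in size; nearly all hits also lower the signal before the agonist is added; a reference antagonist and vehicle were the controls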
Target sequence (P16066 whole entry, looked up): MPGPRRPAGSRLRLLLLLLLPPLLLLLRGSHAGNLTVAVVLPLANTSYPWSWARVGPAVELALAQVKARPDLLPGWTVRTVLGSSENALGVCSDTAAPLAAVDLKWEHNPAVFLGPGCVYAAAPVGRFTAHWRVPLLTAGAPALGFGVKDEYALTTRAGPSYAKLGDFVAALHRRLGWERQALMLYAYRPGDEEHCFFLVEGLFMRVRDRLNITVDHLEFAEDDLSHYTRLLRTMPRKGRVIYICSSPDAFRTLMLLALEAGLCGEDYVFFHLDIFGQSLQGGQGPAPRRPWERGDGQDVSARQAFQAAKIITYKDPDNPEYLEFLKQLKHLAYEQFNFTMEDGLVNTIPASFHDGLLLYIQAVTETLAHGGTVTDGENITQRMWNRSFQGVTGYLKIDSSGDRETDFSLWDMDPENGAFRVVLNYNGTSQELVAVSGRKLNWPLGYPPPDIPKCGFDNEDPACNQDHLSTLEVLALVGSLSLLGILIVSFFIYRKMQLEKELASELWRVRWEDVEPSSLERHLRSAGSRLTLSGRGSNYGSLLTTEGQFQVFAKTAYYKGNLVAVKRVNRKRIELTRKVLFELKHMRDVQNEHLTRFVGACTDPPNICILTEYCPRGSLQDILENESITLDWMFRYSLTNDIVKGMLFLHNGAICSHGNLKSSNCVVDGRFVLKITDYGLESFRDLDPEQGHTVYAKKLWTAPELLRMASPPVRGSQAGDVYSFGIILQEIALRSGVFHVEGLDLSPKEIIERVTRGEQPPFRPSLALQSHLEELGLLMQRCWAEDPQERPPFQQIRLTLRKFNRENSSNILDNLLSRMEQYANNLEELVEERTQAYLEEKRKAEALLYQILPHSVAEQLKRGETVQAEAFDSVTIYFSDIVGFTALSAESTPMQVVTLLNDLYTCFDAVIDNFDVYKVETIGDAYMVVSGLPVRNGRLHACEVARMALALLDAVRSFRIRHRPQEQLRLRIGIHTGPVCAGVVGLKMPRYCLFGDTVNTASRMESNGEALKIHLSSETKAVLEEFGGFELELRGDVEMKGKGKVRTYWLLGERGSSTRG
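HEK293 cells stably expressing human Npr1 and cGMP GloSensor pGS-40F, loaded 2 h with 2% GloSensor reagent, given compound 30 min at room temperature. Luminescence read before and 20 min after 0.1 nM hNppA.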
* hit, by the source's call; ? = inconclusive; [ ] = dose if it differs, or a comment. % is set by controls: 0 for no effect and ±100 for the full control effect; potency is the fitted concentration of half-maximal effect.

hNpr1 antagonist	Molecule
6.4%	Cc1ccc(-c2nc(CNC(=O)CC3CNCCO3)[nH]c2-c2ccccn2)cc1 (stereo unspecified)
2.7%	CC(C)c1nc2c(c(-c3ccc(O)cc3)n1)CCN(Cc1cccnc1)CC2
-2.3%	Cc1ccc(-c2nc(CNC(=O)[C@@H]3CCCN3)[nH]c2-c2ccccn2)cc1
6.6%	CCCc1cc(N2CCC(NCCOC(C)C)CC2)nc(C)n1
0.9%	COc1cccc(CCC(=O)N2C[C@@H](Oc3ccccc3)C[C@@H]2C(=O)N2CCOCC2)c1
6.2%	CCc1cc(NCCS(=O)(=O)CC)n2nccc2n1
-7.4%	COCC1CN(C)CC12CCN(S(=O)(=O)Cc1ccc(F)cc1)CC2 (stereo unspecified)
0.5%[70.6 µM]	O=C(O)c1ccc(CN2C[C@H](O)C[C@H]2c2nc(-c3ccncc3)no2)cc1
14.1%[70.6 µM]	CC(C)(CC(=O)O)CC(=O)N1Cc2[nH]cnc2C[C@H]1c1nc(Cc2ccccc2)no1
14.5%	O=C(c1ccc(C(F)(F)F)cc1)N1CCC2(CC1)CC(=O)N(c1ccccc1)c1ccccc1O2
1.9%	CCNC(=O)Nc1ccc(C(C(=O)O)N2CCOCC2)cc1OC (stereo unspecified)
-12.3%	Cc1ccccc1[C@H]1[C@@H](C(=O)NC(CO)CO)C[C@@](C)(C(=O)O)N1C
-1.0%	CN(CCCN1CCOCC1)c1cc(C2CC(N)C2)ncn1 (stereo unspecified)
3.3%	COCc1noc([C@@H]2CN(C(=O)CCc3c[nH]c4ccccc34)C[C@H]2C(N)=O)n1
-3.6%	CN1CC(=O)N(c2ccccc2)Cc2c1ncnc2N1CCc2ccccc2C1
2.1%	Cc1cccc(OCC(=O)N(C)C2CCc3nn(CC4CC4)c(=O)n3CC2)c1 (stereo unspecified)
-0.4%[70.6 µM]	COc1ccc(CNC(=O)C[C@@H]2O[C@H](CNC(=O)c3ccc(C)cc3)[C@@H](O)[C@H]2O)cc1
3.9%	CCNC(=O)N1CCC(CCOC)(NC(=O)c2cccs2)CC1
3.8%	CC(C)CCN1CCCC2(CC(c3cccc(C(F)(F)F)c3)=NO2)C1 (stereo unspecified)
-1.1%[70.6 µM]	CCN(CC)CC[C@H]1CN(C(=O)c2ccc(F)cc2)CC[C@H]1CC(=O)O
2.8%	O=C(NCCc1ccccc1)N1CCCC(c2nc(CCOCC3CC3)no2)C1 (stereo unspecified)
-9.3%	CCC(=O)N(C1CCOCC1)C1CCN(Cc2ccc[nH]2)CC1
0.0%	CC(NC(=O)C1CC(c2ccccc2)CN(C(=O)c2ccc(F)cc2)C1)c1ccccc1 (stereo unspecified)
0.3%[70.6 µM]	CC(C)CN1C(=O)CO[C@H](c2ccc(NC(=O)c3cccc(C#N)c3)cc2)[C@H]1CO
3.5%	CCOC(=O)c1ccc(NC(=O)Cn2c(N3CCCCC3)nc(C)c(C)c2=O)cc1
2.2%	OCC1(CCOc2ccccc2)CCNCC1
-6.2%	COCC(=O)N1CCCN(S(=O)(=O)c2ccccc2)CCC(=O)NCC1
-25.6%	O=C(Nc1cccc(C(F)(F)F)c1)O[C@@H]1CO[C@H]2[C@@H]1OC[C@@H]2NC(=S)NC1CCCCC1
-4.7%	Cc1cc(S(=O)(=O)NCCc2noc(-c3ccccc3)n2)ccc1Cl
1.2%	COc1ccc(C(=O)N[C@@H]2C=C[C@@H](c3c(C)nn(-c4ccc(C(F)(F)F)cc4)c3C)C2)cc1
10.1%	Cc1ccc(CNC(=O)C(C)C2CCOCC2)cc1C (stereo unspecified)
4.8%	CC(C)c1noc(C2CCCN(S(=O)(=O)c3cn(C)cn3)CCC(=O)NCC2)n1 (stereo unspecified)
2.9%	CCn1cc(S(=O)(=O)N2CCC(c3noc(-c4cnccn4)n3)C2)cn1 (stereo unspecified)
3.4%	Cc1cc(C(=O)N2CCCn3ccnc3C2c2cnn(C)c2)n(C)n1 (stereo unspecified)
?	COc1ccc(NC2CCCN(CC(=O)Nc3ccc(C)cn3)C2)cc1 (stereo unspecified)
?	Cc1ccc(OCCC2CCN(C(=O)c3ccc(C)nc3)C2)cc1 (stereo unspecified)
8.4%	C[C@]1(O)CCN(C(=O)c2ccc(N3CCOCC3)cc2)C[C@@H]1O
-10.5%	C#CCCC(=O)N(Cc1cccc(C)c1)Cc1ccccc1OC
0.1%	COc1ccc(CNC(=O)C2CC(=O)N(c3n[nH]c4cccc(F)c34)C2)cc1 (stereo unspecified)
2.3%	O=C(COc1ccc(F)cc1)N1C[C@@H](CO)[C@H](c2ccncc2)C1
0.1%	CN1C(=O)CC[C@]2(C(=O)N3CCN(c4ccc(F)cc4)CC3)CCCC[C@@H]12
-4.2%	CN1Cc2cccn2CC1CNC(=O)c1ccccc1F (stereo unspecified)
1.9%[70.6 µM]	Cc1cccc(OCC2(CNC(=O)C3CCOCC3)C[C@@H](O)[C@@H](O)C2)n1 (stereo partly specified)
1.6%	O=C(CSC12CC3CC(CC(C3)C1)C2)NC1CCCN(c2ncccn2)C1 (stereo unspecified)
17.7%	CCc1noc(-c2cn(C3CCN(C(=O)Cc4cccc(OC)c4)CC3)nn2)n1
16.0%	O=C(Cn1nc2n(c1=O)CCN(Cc1cccc(Cl)c1)C2=O)NC1CCCC1
7.3%	COc1ccc2[nH]cc(CCNC(=O)C3N(C(C)C)C(=O)C34CCCC4)c2c1 (stereo unspecified)
4.5%	CCCC1c2nccn2CCCN1C(=O)c1ccc(OC)nc1 (stereo unspecified)
-0.7%	Cc1cccc(-c2ncc(CN(CCC(N)=O)Cc3ccccc3)cn2)c1
-7.6%	COC[C@@H]1CN(Cc2ccc(F)c(OC)c2)C[C@H]1C(=O)N(C)C

Following part:
hNpr1 antagonist	Molecule
11.2µM*	O=C(c1cccc2[nH]ccc12)N1CCC(n2cc(-c3nc(-c4ccccc4)no3)nn2)C1 (stereo unspecified)
8.9%	Cn1ncc(N2CCC(NC(=O)c3cnccn3)CC2)cc1=O
-15.3%	CCCCNC(=O)c1cc2n(n1)CC(c1ccc(Cl)cc1)OC2 (stereo unspecified)
-18.2%	Cc1ccc(CN2CCC(Cc3nc(-c4cccnc4)n[nH]3)C2)cc1C (stereo unspecified)
0.8%	O=C(NCc1cccc(Cl)c1)c1noc(-c2ccc3c(c2)OCO3)n1
-12.7%[70.6 µM]	C#CCNC[C@@H]1C=C(C)[C@H](Cc2nnc(Cc3c[nH]c4ccccc34)o2)C[C@H]1C(C)C
1.5%	CCn1nccc1C(=O)N1CCC2(CC1)C(OC)C(=O)N2CC1CC1 (stereo unspecified)
4.3%	CCC(C(=O)N1CCc2nc(NC)nc(C(=O)N3CCCC3)c2C1)n1cccn1 (stereo unspecified)
0.0%	O=C(CCC(F)(F)F)N1CCCC(CCc2c(F)cccc2F)C1 (stereo unspecified)
0.8%[70.6 µM]	CCN(CC)Cc1nc(C2(O)CCN(C(=O)Nc3ccc(F)cc3)CC2)cs1
-9.9%	Cc1cc(Cl)ccc1NC(=O)N1CCC(n2cnnc2C2CC2)C1 (stereo unspecified)
-15.1%	Cc1cccc(OCC(=O)N2CCC3(CC2)NC(=O)N(c2ccccc2Cl)N3)c1
-16.7%	COc1ccc(OC)c(S(=O)(=O)N2CCCN(C(=O)c3cccnc3)CCC(=O)NCC2)c1
1.0%	CNC(=O)[C@@H]1C[C@H](Oc2ccccc2)CN1C(=O)C(C)C
0.7%	COCC(=O)N(C1CCOCC1)C1CCN(C(=O)c2ccsc2)CC1
1.5%	Cc1ncccc1C(=O)N1CCCC(c2nc(-c3cccnc3)no2)CCNC(=O)CC1 (stereo unspecified)
5.8%	O=C(NC1CC1)c1cc2n(n1)CCN(C(=O)c1ccc3n[nH]nc3c1)C2
0.0%	COc1cccc(N2CC(C(=O)NCc3ccc4c(c3)OCO4)NC2=O)c1 (stereo unspecified)
3.6%	COCc1nc(CCNC(=O)CCC2CCCC2)no1
1.9%	Cc1noc(C)c1S(=O)(=O)N1CCC2(C1)N=C(c1ccccn1)C(=O)N2 (stereo unspecified)
0.0%	CCc1nc(-c2c3n(c(=O)n(CC(=O)Nc4ccc(F)cc4F)c2=O)CCCCC3)no1
1.5%	Cc1cnc(C(=O)N[C@@H]2CCC[C@@H]2C(=O)NCCN2CCOCC2)cn1
4.9%	CCO[C@H]1CN(C(=O)C2CCN(C(=O)c3ccccc3Cl)CC2)C[C@@H]1O
-17.5%	O=C(Nc1ccc(F)cc1F)c1cnc(-c2ccc(F)cc2)nc1-c1ccncc1
-2.8%	CN(Cc1cccc2cnccc12)C(=O)c1cc(COc2ccccc2F)[nH]n1
4.7%	CCn1c(C2CCCN(S(=O)(=O)c3cccc4nonc34)C2)nn(C)c1=O (stereo unspecified)
2.2%	CCN1c2cc(C(=O)Nc3cc(C)ccc3OC)ccc2C(=O)N2CCCCCC21 (stereo unspecified)
-0.9%	Cc1ncsc1CN1CCC([C@@H]2CNC[C@H]2CO)CC1
2.4%	COc1c(F)cc(CNCC2(O)CCCNC2)cc1F (stereo unspecified)
?	Cc1nc(N2CCC(NC(=O)Cc3ccccc3C)CC2)cc(C(F)(F)F)n1
0.0%[70.6 µM]	Cc1ccc(C(=O)N2CCC3(CC(Cc4ccccc4)=NO3)C2)cc1 (stereo unspecified)
1.3%	O=C(NCc1nc(-c2ncccn2)no1)C1CCCN(Cc2ccco2)C1 (stereo unspecified)
-15.5%	O=C(Cc1cccc(Cl)c1)N1CCNc2cnc(Nc3cccc(C(F)(F)F)c3)nc2C1
10.1%[70.6 µM]	CN(Cc1ccc(F)cc1)Cc1ccc(OC(F)(F)F)cc1
-7.2%[70.6 µM]	CC(C)C[C@@H]1N[C@H](C(=O)NC2CC2)Cc2cn(Cc3nccn3C)c3cccc1c23
0.0%	Cc1ccc(CN2C(=O)NC3(CCCN(C(=O)c4cc(C)cc(C)c4)C3)C2=O)cc1 (stereo unspecified)
0.3%	N#Cc1ccc(N2CCN(C(=O)c3cccc(C(F)(F)F)c3)CC2=O)cc1
0.0%	COc1ccccc1OC1CCN(C(=O)C2CCCN(C(C)=O)C2)CC1 (stereo unspecified)
-16.4%	Cc1cc(C)n(CC(=O)N2CCC(c3nc(CCOc4ccc(F)cc4)no3)C2)n1 (stereo unspecified)
2.3%	Cc1ccccc1Oc1ncccc1CNC(=O)CCn1cnnc1
-15.3%	O=C(Cc1ccc(F)cc1)NC1CCN(c2cc(-c3ccccc3)[nH]n2)C1 (stereo unspecified)
-5.1%	OCC1(CCCc2ccccc2)CCN(Cc2cccc3c2OCO3)CC1
-7.0%	COCCn1nc2n(c1=O)CCN(C(=O)c1ncccc1C)CC2
5.4%	O=C(O)CC[C@@H]1CN(C(=O)Cc2ccc(CO)cc2)CC[C@@H]1N1CCOCC1
-13.7%	O=C(Cc1cccn1-c1ccc(F)cc1)NCc1ccc(N2CCOCC2)cc1
-19.8%	CCCn1c(C)cnc1CC1CCCN(S(=O)(=O)c2cccs2)C1 (stereo unspecified)
-8.7%	CNc1cc(C2CC(NS(=O)(=O)c3ccc(F)cc3)C2)nc(COC)n1 (stereo unspecified)
-1.0%	COc1cc(=O)n2c(c1C(=O)Nc1ccc(F)cc1Cl)CCCC2
6.5%	CC(C)C[C@H](N)C(=O)N1CCC2(CC1)Nc1ccccc1NC2=O
?	O=C(c1cc(F)ccc1F)N1CCCC(n2cc(-c3nc(C4CC4)no3)nn2)C1 (stereo unspecified)

(more compounds)
hNpr1 antagonist	Molecule
0.3%	O=C(NCc1ccccc1)c1ccc2c(c1)n(Cc1ccc(F)cc1)c(=O)c1ccnn12
2.9%	CCn1cc(CN2CCCC(c3nc(-c4cnccn4)no3)CCNC(=O)CC2)cn1 (stereo unspecified)
-19.0%	COc1ccc(-c2cc(N3CCC(NC(=O)c4cc(F)ccc4Cl)CC3)n[nH]2)cc1
0.2%[70.6 µM]	CN(C)CCNC(=O)c1ccnc(-c2nnc3ccc(N(C)c4ccccc4)nn23)c1

Among those listed so far, these have an NH in an aromatic ring:
hNpr1 antagonist	Molecule
6.4%	Cc1ccc(-c2nc(CNC(=O)CC3CNCCO3)[nH]c2-c2ccccn2)cc1 (stereo unspecified)
-2.3%	Cc1ccc(-c2nc(CNC(=O)[C@@H]3CCCN3)[nH]c2-c2ccccn2)cc1
14.1%[70.6 µM]	CC(C)(CC(=O)O)CC(=O)N1Cc2[nH]cnc2C[C@H]1c1nc(Cc2ccccc2)no1
3.3%	COCc1noc([C@@H]2CN(C(=O)CCc3c[nH]c4ccccc34)C[C@H]2C(N)=O)n1
-9.3%	CCC(=O)N(C1CCOCC1)C1CCN(Cc2ccc[nH]2)CC1
0.1%	COc1ccc(CNC(=O)C2CC(=O)N(c3n[nH]c4cccc(F)c34)C2)cc1 (stereo unspecified)
7.3%	COc1ccc2[nH]cc(CCNC(=O)C3N(C(C)C)C(=O)C34CCCC4)c2c1 (stereo unspecified)
11.2µM*	O=C(c1cccc2[nH]ccc12)N1CCC(n2cc(-c3nc(-c4ccccc4)no3)nn2)C1 (stereo unspecified)
-18.2%	Cc1ccc(CN2CCC(Cc3nc(-c4cccnc4)n[nH]3)C2)cc1C (stereo unspecified)
-12.7%[70.6 µM]	C#CCNC[C@@H]1C=C(C)[C@H](Cc2nnc(Cc3c[nH]c4ccccc34)o2)C[C@H]1C(C)C
5.8%	O=C(NC1CC1)c1cc2n(n1)CCN(C(=O)c1ccc3n[nH]nc3c1)C2
-2.8%	CN(Cc1cccc2cnccc12)C(=O)c1cc(COc2ccccc2F)[nH]n1
-15.3%	O=C(Cc1ccc(F)cc1)NC1CCN(c2cc(-c3ccccc3)[nH]n2)C1 (stereo unspecified)
-19.0%	COc1ccc(-c2cc(N3CCC(NC(=O)c4cc(F)ccc4Cl)CC3)n[nH]2)cc1

A portion of the library; rates above refer to the full screens.
